HIV Env fusion = inhibitors of HIV Env-mediated cell fusion | inhibition, % at 12.3 µM | actives 1.1% (n = 360,000) | AID 651610 | HeLa-JRFL Env/CEM21 cell fusion, luciferase;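 active means mean replicate inhibition score of at least 50 and every replicate individually at or above 50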;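 further: 0% = plate neutral controls and 100% = maraviroc near 300 nM; one replicate is shown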
UUG fidelity = modulators of start codon recognition fidelity in yeast | activity score, % at 18.7 µM | AID 602363 | S. cerevisiae UUG-firefly luciferase reporter, luminescence/redox ratio | actives 0.13% (n = 350,000);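 active means replicate mean at a twofold rise or more, about +100% in these data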;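 further: firefly luciferase made from a UUG start codon reports start codon fidelity; reporter light over untreated wells divided by growth signal over untreated wells; some hits fall short of that in this replicate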
* marks the source's active call; other numbers are inactive results; [ ] = remark or other dose. The list is partial (hit frequency here may not be typical).

SMILES | HIV Env fusion | UUG fidelity
COCCNC(=O)C[C@@H]1C[C@@H]2c3cc(NC(=O)COC)ccc3O[C@@H]2[C@@H](CO)O1 | -28[16.7 µM] | 5
C[C@H]1CCCCO[C@@H](CN(C)S(=O)(=O)c2cccs2)[C@@H](C)CN([C@@H](C)CO)C(=O)c2cc(NC(=O)Nc3ccc(C(F)(F)F)cc3)ccc2O1 | 20[16.7 µM] | -1
C[C@@H]1CN([C@@H](C)CO)C(=O)c2cc(C3=CCCCC3)cnc2O[C@H]1CN(C)C(=O)Cc1cccnc1 | -31[16.7 µM] | 5
Cc1noc(C)c1S(=O)(=O)Nc1ccc2c(c1)CC(=O)N([C@H](C)CO)C[C@H](C)[C@@H](CN(C)S(=O)(=O)c1c(C)noc1C)O2 | -4[16.7 µM] | 26
COCCCNC(=O)[C@@]1(Cc2ccccc2CN=[N+]=[N-])COC(c2ccc(OCCCO)cc2)=N1 | 13[16.7 µM] | 0
CN(c1ccccc1)S(=O)(=O)c1cccc(NC(=O)CN2C(=O)NC3(CCCC3)C2=O)c1 | -35 | 8
C[C@@H]1CN([C@H](C)CO)C(=O)c2cc(NC(=O)Nc3ccc(F)cc3)ccc2O[C@H]1CN(C)Cc1ccc(-c2ccccc2)cc1 | -15[16.7 µM] | 1
C[C@@H]1CCCCO[C@@H](CN(C)C)[C@@H](C)CN([C@H](C)CO)C(=O)c2cc(NS(=O)(=O)c3cccs3)ccc2O1 | 8[16.7 µM] | -8
O=C(C[C@H]1C=C[C@@H](NC(=O)c2ccc3c(c2)OCO3)[C@H](CO)O1)NC1Cc2ccccc2C1 | -17[16.7 µM] | -6
C[C@@H]1CN([C@@H](C)CO)C(=O)Cc2cc(NS(C)(=O)=O)ccc2O[C@@H]1CN(C)C(=O)Nc1ccc(C(F)(F)F)cc1 | 11[16.7 µM] | -33
C[C@@H]1CN([C@H](C)CO)C(=O)c2cc(N(C)C)ccc2O[C@H]1CN(C)C | 0[16.7 µM] | -13
C[C@@H]1CN([C@@H](C)CO)C(=O)c2cccc(NS(=O)(=O)c3ccc(Cl)cc3)c2O[C@@H]1CN(C)Cc1ccccc1 | -7[16.7 µM] | -2
Cc1noc(C)c1NC(=O)NCC[C@H]1CC[C@@H](NC(=O)Cc2cccnc2)[C@H](CO)O1 | 3[16.7 µM] | -3
C[C@@H]1CN([C@@H](C)CO)C(=O)c2cc(NC(=O)C3CC3)ccc2O[C@@H]1CN(C)Cc1ccc2c(c1)OCO2 | 9[16.7 µM] | 5
C[C@H]1CN([C@@H](C)CO)C(=O)Cc2cc(NC(=O)CCC(F)(F)F)ccc2O[C@@H]1CN(C)S(=O)(=O)c1cn(C)cn1 | 28[16.7 µM] | -3
C[C@H](CO)N1C[C@H](C)[C@H](CN(C)C(=O)NC2CCCCC2)Oc2c(NC(=O)Nc3ccc(C(F)(F)F)cc3)cccc2C1=O | -5[16.7 µM] | 11
Cc1noc(C)c1S(=O)(=O)Nc1ccc2c(c1)CC(=O)N([C@H](C)CO)C[C@@H](C)[C@@H](CN(C)S(=O)(=O)c1cccs1)O2 | 4[16.7 µM] | 11
CCCC#Cc1ccc2c(c1)O[C@@H](CN(C)C(=O)C1CC1)[C@H](C)CN([C@H](C)CO)S2(=O)=O | 7[16.7 µM] | 19
COc1ccc(NC(=O)Nc2ccc3c(c2)C(=O)N([C@@H](C)CO)C[C@H](C)[C@@H](CN(C)C(=O)NC(C)C)O3)cc1 | -22[16.7 µM] | -5
CCCC#Cc1ccc2c(c1)O[C@H](CN(C)S(C)(=O)=O)[C@H](C)CN([C@H](C)CO)S2(=O)=O | 16[16.7 µM] | 21
COc1ccc(NC(=O)Nc2ccc3c(c2)C(=O)N([C@H](C)CO)C[C@H](C)[C@H](CN(C)S(=O)(=O)c2ccc(C)cc2)O3)cc1 | 87*[16.7 µM] | 2
O=C(C[C@H]1CC[C@H](NC(=O)C2CCC2)[C@@H](CO)O1)NCc1ccncc1 | -1[16.7 µM] | 4
C[C@@H]1CN([C@H](C)CO)S(=O)(=O)c2ccc(-c3cccc(C(=O)N(C)C)c3)cc2O[C@H]1CN(C)Cc1ccc2c(c1)OCO2 | 1[16.7 µM] | 9
COc1ccc(NC(=O)Nc2ccc3c(c2)C(=O)N([C@H](C)CO)C[C@H](C)[C@@H](CN(C)Cc2ccc(C(F)(F)F)cc2)OCCCC[C@@H](C)O3)cc1 | 0[16.7 µM] | -10
Cc1noc(C)c1S(=O)(=O)Nc1ccc2c(c1)C(=O)N([C@H](C)CO)C[C@@H](C)[C@H](CN(C)CC1CC1)O2 | -4[16.7 µM] | -5
C[C@H]1CN([C@@H](C)CO)C(=O)Cc2cc(NS(=O)(=O)c3cccs3)ccc2O[C@H]1CN(C)Cc1ccc(Cl)c(Cl)c1 | -8[16.7 µM] | 1
COCC(=O)N[C@@H]1CC[C@H](CC(=O)NCc2ccc(Cl)cc2)O[C@H]1CO | 0[16.7 µM] | -12
C[C@@H]1CN([C@@H](C)CO)C(=O)c2cc(-c3ccc(C#N)cc3)cnc2O[C@@H]1CN(C)Cc1ccccn1 | 1[16.7 µM] | -26
C[C@H]1CN([C@@H](C)CO)C(=O)Cc2cc(NC(=O)CCCN(C)C)ccc2O[C@@H]1CN(C)Cc1ccc(Oc2ccccc2)cc1 | -5[16.7 µM] | -4
COCC(=O)Nc1ccc2c(c1)[C@@H]1C[C@H](CC(=O)NCc3ccc(-c4ccccc4)cc3)O[C@@H](CO)[C@@H]1O2 | 49[16.7 µM] | -16
C[C@@H]1CN([C@@H](C)CO)S(=O)(=O)c2ccc(C3=CCCC3)cc2O[C@H]1CN(C)Cc1cccc(C(=O)O)c1 | -2[16.7 µM] | 44
CC(C)C#Cc1cnc2c(c1)C(=O)N([C@@H](C)CO)C[C@@H](C)[C@@H](CN(C)C(=O)CN1CCOCC1)O2 | 0[16.7 µM] | 0
C[C@@H]1CN([C@H](C)CO)C(=O)Cc2cc(NC(=O)Nc3ccc(C(F)(F)F)cc3)ccc2O[C@@H]1CN(C)C(=O)Nc1ccc(F)cc1 | -40[16.7 µM] | -5
C[C@H](CO)N1C[C@H](C)[C@H](CN(C)Cc2cccnc2)Oc2cc(-c3ccncc3)ccc2S1(=O)=O | -14[16.7 µM] | -12
COC(=O)C[C@@H]1CC[C@@H](NC(=O)c2ccccc2)[C@@H](CO)O1 | 17[16.7 µM] | -12
C[C@H](CO)N1C[C@H](C)[C@H](CN(C)S(=O)(=O)c2cn(C)cn2)Oc2ncc(C#Cc3ccc(C(F)(F)F)cc3)cc2C1=O | 9[16.7 µM] | 0
COc1ccccc1-c1ccc2c(c1)O[C@H](CN(C)C(=O)Nc1ccccc1)[C@@H](C)CN([C@@H](C)CO)S2(=O)=O | -25[16.7 µM] | -1
C[C@@H]1CN([C@H](C)CO)C(=O)Cc2cc(NS(=O)(=O)c3ccccc3)ccc2O[C@H]1CN(C)Cc1ccc(-c2ccccc2)cc1 | -19[16.7 µM] | 2
C[C@H](CO)N1C[C@H](C)[C@@H](CN(C)Cc2ccc(C(F)(F)F)cc2)Oc2ccc(NC(=O)NC3CCCCC3)cc2CC1=O | 18[16.7 µM] | 6
CCNC(=O)C[C@@H]1CC[C@@H]2[C@@H](COc3ccc(NC(=O)C4CCOCC4)cc3C(=O)N2C)O1 | -16[16.7 µM] | -1
C[C@H]1CN([C@@H](C)CO)C(=O)c2cc(C#CC3(O)CCCC3)cnc2O[C@@H]1CN(C)S(C)(=O)=O | -5[16.7 µM] | 1
CO[C@@H]1CN(C)C(=O)c2cc(NC(=O)Nc3cccc(F)c3)ccc2OC[C@H](C)N(C(C)=O)C[C@H]1C | 1[16.7 µM] | 1
Cc1noc(C)c1NC(=O)N(C)C[C@@H]1Oc2ccc(NC(=O)C3CCCCC3)cc2C(=O)N([C@@H](C)CO)C[C@@H]1C | 7[16.7 µM] | -7
C[C@H]1CCCCO[C@H](CN(C)CC2CCCCC2)[C@@H](C)CN([C@@H](C)CO)C(=O)c2cc(NC(=O)Nc3ccc4c(c3)OCO4)ccc2O1 | -12[16.7 µM] | 5
O=C(Nc1ccccc1F)N[C@@H]1CC[C@H](CCNS(=O)(=O)c2ccc(Cl)cc2)O[C@@H]1CO | -9[16.7 µM] | 8
C[C@@H]1CN([C@H](C)CO)C(=O)c2cccc(NC(=O)C3CCOCC3)c2O[C@@H]1CN(C)Cc1ccc(Oc2ccccc2)cc1 | -10[16.7 µM] | 4
C[C@H]1CN([C@@H](C)CO)C(=O)c2cc(C3=CCCC3)cnc2O[C@H]1CN(C)C(=O)Nc1ccc(F)cc1 | 2[16.7 µM] | 8
CCCC#Cc1ccc2c(c1)O[C@@H](CN(C)C(=O)c1cnccn1)[C@@H](C)CN([C@@H](C)CO)S2(=O)=O | -3[16.7 µM] | -3
CC(C)NC(=O)NCC[C@@H]1CC[C@H](NC(=O)Nc2ccccc2)[C@H](CO)O1 | 2[16.7 µM] | -6
C[C@@H]1CN([C@@H](C)CO)S(=O)(=O)c2ccc(-c3ccccc3)cc2O[C@H]1CN(C)C(=O)CN(C)C | 1[16.7 µM] | -1

The list continues.
SMILES | HIV Env fusion | UUG fidelity
C[C@@H]1CN([C@@H](C)CO)C(=O)c2cccc(N(C)C)c2O[C@H]1CN(C)Cc1ccccc1 | 3[16.7 µM] | -1
COc1cccc(-c2ccc3c(c2)O[C@H](CN(C)C(=O)C2CCC2)[C@@H](C)CN([C@H](C)CO)S3(=O)=O)c1 | -2[16.7 µM] | 1
Cc1noc(C)c1NC(=O)Nc1ccc2c(c1)CC(=O)N([C@@H](C)CO)C[C@H](C)[C@@H](CN(C)Cc1ccc3c(c1)OCO3)O2 | -12[16.7 µM] | -3
C[C@@H]1CCCCO[C@@H](CN(C)C(=O)C2CCCCC2)[C@H](C)CN([C@@H](C)CO)C(=O)c2cc(NC(=O)CCC(F)(F)F)ccc2O1 | -43[16.7 µM] | 26
C[C@H]1CN([C@@H](C)CO)S(=O)(=O)c2ccc(-c3ccncc3)cc2O[C@@H]1CN(C)Cc1ccc(Oc2ccccc2)cc1 | 33[16.7 µM] | 12
C[C@@H]1CN([C@@H](C)CO)C(=O)c2cc(NS(=O)(=O)c3ccc(F)cc3)ccc2O[C@@H](C)CCCCO[C@@H]1CN(C)Cc1ccncc1 | -4[16.7 µM] | -1
C[C@H]1CN([C@@H](C)CO)C(=O)c2cc(C3=CCCCC3)cnc2O[C@H]1CN(C)C(=O)Cc1cccnc1 | 7[16.7 µM] | -10
O=C1OC[C@@H](c2ccccc2)n2cc(/C=C/c3ccccc3)cc21 | 7[16.7 µM] | 9
Cc1noc(C)c1S(=O)(=O)Nc1ccc2c(c1)CC(=O)N([C@H](C)CO)C[C@@H](C)[C@@H](CN(C)S(=O)(=O)c1cn(C)cn1)O2 | -9[16.7 µM] | 13
CC(C)CC#Cc1cnc2c(c1)C(=O)N([C@H](C)CO)C[C@@H](C)[C@H](CN(C)Cc1ccccc1C(=O)O)O2 | -5[16.7 µM] | 24

3 compounds already listed, ordered by SMILES length, ascending.
SMILES | HIV Env fusion | UUG fidelity
C[C@@H]1CN([C@H](C)CO)C(=O)c2cc(N(C)C)ccc2O[C@H]1CN(C)C | 0[16.7 µM] | -13
O=C(Nc1ccccc1F)N[C@@H]1CC[C@H](CCNS(=O)(=O)c2ccc(Cl)cc2)O[C@@H]1CO | -9[16.7 µM] | 8
COc1ccc(NC(=O)Nc2ccc3c(c2)C(=O)N([C@H](C)CO)C[C@H](C)[C@H](CN(C)S(=O)(=O)c2ccc(C)cc2)O3)cc1 | 87*[16.7 µM] | 2

Additional results
SMILES | HIV Env fusion | UUG fidelity
CN1C(=O)c2cc(NC(=O)c3cccs3)ccc2OC[C@H]2O[C@H](CC(=O)NCCN3CCCCC3)CC[C@@H]21 | 13[16.7 µM] | 14
COc1ccc(S(=O)(=O)N2C[C@@H](O)COC[C@H]3O[C@@H](CC(=O)N[C@@H]4CCN(Cc5ccccc5)C4)CC[C@@H]32)cc1 | 18[16.7 µM] | 12
C[C@H](O)C#Cc1ccc2c(c1)O[C@H](CN(C)Cc1ccccn1)[C@H](C)CN([C@H](C)CO)S2(=O)=O | 15[16.7 µM] | -12
CCC(=O)Nc1ccc2c(c1)C(=O)N(C)C[C@@H](OC)[C@H](C)CN(Cc1ccc(-c3ccccn3)cc1)[C@H](C)CO2 | -18[16.7 µM] | 11
COc1ccc(NC(=O)Nc2ccc3c(c2)C(=O)N([C@H](C)CO)C[C@@H](C)[C@H](CN(C)C(=O)Cc2ccccc2)OCCCC[C@H](C)O3)cc1 | 28[16.7 µM] | -1
COCC(=O)Nc1ccc2c(c1)C(=O)N(C)C[C@@H](OC)[C@H](C)CN(C(C)=O)[C@H](C)CO2 | 85*[16.7 µM] | -10
C[C@@H]1CCCCO[C@@H](CN(C)C(=O)C2CCCCC2)[C@H](C)CN([C@@H](C)CO)C(=O)c2cc(NC(=O)CCCCCC(=O)Nc3ccccc3N)ccc2O1 | -27[16.7 µM] | 6
CC(C)NC(=O)Nc1ccc2c(c1)C(=O)N([C@H](C)CO)C[C@@H](C)[C@H](CN(C)C(=O)C1CCCCC1)OCCCC[C@@H](C)O2 | 6[16.7 µM] | -3

Whole records, quoted from the list. Order of values: HIV Env fusion | UUG fidelity
Entry for `CN1C(=O)c2cc(NC(=O)c3cccs3)ccc2OC[C@H]2O[C@H](CC(=O)NCCN3CCCCC3)CC[C@@H]21` : 13[16.7 µM] | 14
Entry for `CC(C)NC(=O)Nc1ccc2c(c1)C(=O)N([C@H](C)CO)C[C@@H](C)[C@H](CN(C)C(=O)C1CCCCC1)OCCCC[C@@H](C)O2` : 6[16.7 µM] | -3
Entry for `COc1ccc(NC(=O)Nc2ccc3c(c2)C(=O)N([C@H](C)CO)C[C@@H](C)[C@H](CN(C)C(=O)Cc2ccccc2)OCCCC[C@H](C)O3)cc1` : 28[16.7 µM] | -1

Screening results: PubChem BioAssay, Broad Institute
